CapD inh = Bacillus anthracis CapD inhibitors, primary screen, biochemical, fluorescence intensity; CapD gamma-glutamyltranspeptidase (Bacillus anthracis Ames Ancestor); purified CapD enzyme, fluorescence intensity read-out; hits give low values; some hits fall short of the stated cut; z-score (no concentration beside the values); hit rate 0.23% among 140,000; AID 492967, 2010;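 active means z-score under -4 in either of two replicates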;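 further: stock transfer was 100 nL into about 40 µL; score is relative to mean and spread of the plate; one replicate is shown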
AID504770 = growth inhibition of E. coli YBA685, primary screen, V. cholerae RctB inhibitors; AID 504770, 2011; z-score (no concentration beside the values); E. coli YBA685 rctB-dependent plasmid, OD600 growth, 3 h; hits give low values; hit rate 0.27% among 130,000;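 active means z-score under -2 on both plates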;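 further: wells of about 30 µL received 100 nL stock; score is relative to mean and SD of the test wells; the first replicate is given; strong numbers were not always called active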
* hit, by the source's call; · = no result given; & = joins results of further samples.

Preview, 7 compounds:
structure,CapD inh,AID504770
COc1ccc(/C=C2\N=C(c3cc(OC)c(OC)c(OC)c3)OC2=O)cc1OC(C)=O,-0.18,·
Cc1ccc(N2C(=O)C3C4c5ccccc5C(C=Nc5ccc(O)cc5)(c5ccccc54)C3C2=O)cc1 (stereo not drawn),-0.25,·
COc1cccc(CNC(=O)NCCC#N)c1,0.23,·
O=C1c2ccccc2C(=O)N1Cn1ncc(Cl)c(Cl)c1=O,·,-0.65
COC(=O)c1scc(C)c1NC(=O)c1cccc(C#N)c1,0.67,0.15
Nc1nccc(-c2ccc(NC(=O)Nc3cccc(Cl)c3)cc2)n1,86,-0.3
O=C(NCc1ccccn1)c1cc(-c2ccccc2F)no1,-0.28,-1.4

This part in full, from the first entry:
structure,CapD inh,AID504770
COc1ccc(/C=C2\N=C(c3cc(OC)c(OC)c(OC)c3)OC2=O)cc1OC(C)=O,-0.18,·
Cc1ccc(N2C(=O)C3C4c5ccccc5C(C=Nc5ccc(O)cc5)(c5ccccc54)C3C2=O)cc1 (stereo not drawn),-0.25,·
COc1cccc(CNC(=O)NCCC#N)c1,0.23,·
O=C1c2ccccc2C(=O)N1Cn1ncc(Cl)c(Cl)c1=O,·,-0.65
COC(=O)c1scc(C)c1NC(=O)c1cccc(C#N)c1,0.67,0.15
Nc1nccc(-c2ccc(NC(=O)Nc3cccc(Cl)c3)cc2)n1,86,-0.3
O=C(NCc1ccccn1)c1cc(-c2ccccc2F)no1,-0.28,-1.4
Cc1onc(-c2ccccc2Cl)c1NC(=O)NNC(=O)c1c(-c2ccccc2)noc1C,-0.19,·

Given with two lines to a compound: entries from further up.
The line under a structure holds: CapD inh	AID504770
Cc1ccc(N2C(=O)C3C4c5ccccc5C(C=Nc5ccc(O)cc5)(c5ccccc54)C3C2=O)cc1 (stereo not drawn)
    -0.25	·
COc1cccc(CNC(=O)NCCC#N)c1
    0.23	·
O=C1c2ccccc2C(=O)N1Cn1ncc(Cl)c(Cl)c1=O
    ·	-0.65
COC(=O)c1scc(C)c1NC(=O)c1cccc(C#N)c1
    0.67	0.15

Additional structures
structure,CapD inh,AID504770
CC(C)c1ccc(NC(=O)C2CCC(CNS(=O)(=O)c3cccs3)CC2)cc1 (stereo not drawn),0.58,0.4
O=C(CSc1nnnn1Cc1ccccc1)NCCc1ccccc1,·,-0.5
Cc1cccc(CC(Cc2nc3ccccc3[nH]2)c2nc3ccccc3[nH]2)c1 (stereo not drawn),-0.32,·
N#CCS(=O)(=O)Cc1ccc(Cl)cc1,-0.3,·
CN(Cc1ccco1)C(=O)CSc1nnc(Cc2ccccc2)o1,·,-0.5
CCC(C)NC(=O)c1coc2nc3ccccc3nc12 (stereo not drawn),·,1.7
COc1ccc(-c2cc(-c3ccccc3)c(C#N)c(SCC3(O)CCCCC3S(C)=O)n2)cc1 (stereo not drawn),52,-0.4
Cc1cc(C)cc(C(=O)OCC(=O)Nc2cccc(C(F)(F)F)c2)c1,-0.35,2.2
CS(=O)(=O)Nc1ccc(C(=O)NC23CC4CC(CC(C4)C2)C3)cc1,-0.52,-0.85
O=C(CCSCc1cnn(-c2ccccc2)c1-n1cccc1)NCC1CCCO1 (stereo not drawn),0.64,1
COC(=O)C1=C(C)NC2=C(C(=O)CCC2)C1c1cn[nH]c1 (stereo not drawn),14,-1.1
Cc1nc(=O)cc(-c2ccccc2)n1C,·,0.3
COC(=O)CCC1CCC(CCC(=O)OC)C1=O (stereo not drawn),-0.25,1.6
CNC(=O)c1c(C)nc(SCC(=O)Nc2ccccc2Cc2ccccc2)c(C#N)c1-c1ccco1,·,1
CCCS(=O)(=O)c1c(S(=O)(=O)CCC)c2c3ccccc3ccn2c1C(=O)c1ccc(C)cc1C,0.18,·
CN1N=Nc2ccc(Br)cc2C1c1ccccc1 (stereo not drawn),-0.68,0.1
CCCN1CCC(NCCc2ccccc2OC)CC1,0.07,0.35
O=c1c2cc(NC(=S)NC3CCN(Cc4ccccc4)CC3)ccc2nc2n1CCCCC2,-0.46,-0.25
O=S(=O)(N1CCOCC1)n1cnc2ccccc21,-0.85,-0.3
COc1cc(NC(=O)C2CC3C=CC2C3)cc(OC)c1OC (stereo not drawn),·,1.4
CC(=O)c1cccc(NC(=O)c2ccc(N3CC4CC(C3)c3cccc(=O)n3C4)c(NC(=O)/C=C/c3ccccc3)c2)c1 (stereo not drawn),-0.6,·
O=C(CSc1ccccc1C(=O)O)NCCc1ccccc1,0.54,0.5
C=CCN=C1NN=C(c2cc(C)n(CC=C)c2C)CS1,·,-0.35
CN(C)C(=O)COc1ccc2ccc(=O)oc2c1,·,-0.65
CC(=O)Nc1ccccc1OCC(O)CS(=O)(=O)c1ccc(C(F)(F)F)cn1 (stereo not drawn),0.47,2
O=C(O)Cc1cc(=O)n(-c2ccccc2)[nH]1,·,0.2
CC1(C)SC(CNC(=O)Cc2ccccc2)NC1C(=O)O (stereo not drawn),-0.05,0.5
COC(=O)c1c(C)nc(C)c(C(=O)OC)c1-c1csc(S(=O)(=O)N2CCOCC2)c1,0.27,-0.6
CSc1ccccc1NC(=O)CN1CCN(C(C)=O)CC1,·,-1.7
O=C(Nc1nnc(CCOCCc2nnc(NC(=O)c3ccc([N+](=O)[O-])cc3)s2)s1)c1ccc([N+](=O)[O-])cc1,-0.27,·
COc1ccc(Cl)cc1N1C(=O)CC(NC(C)(C)C)C1=O (stereo not drawn),-0.06,-1.8
Cn1cc(S(=O)(=O)N2CCc3ccccc32)cc1C(=O)N1CCOCC1,0.34,-0.2
Cc1nc2ccc(S(=O)(=O)NC(CC(C)C)C(=O)NCc3cccs3)cc2s1 (stereo not drawn),0.13,-0.15
O=C(NNC(=O)c1cc(-c2ccccc2)nc2ccccc12)OCc1cccc(Oc2ccccc2)c1,3.2,·
CCn1cnc2cc(NCc3ccncc3)ccc21,2.6,0.55
NC(=O)CCn1c(=O)oc2ccccc21,-0.14,-0.25
CC1=C(C(=O)Nc2ccccc2)C(c2ccccc2Cl)n2nnnc2N1 (stereo not drawn),-0.065,·
CC1CCCN(S(=O)(=O)c2cccc3nonc23)C1 (stereo not drawn),0.33&-0.64,·
CCOC(=O)C(Cc1ccccc1)N1C(=O)c2ccccc2C1=O (stereo not drawn),·,-0.6
CCC(=O)Nc1cc2nn(-c3ccc(Cl)cc3)nc2cc1C,10,-0.25
CCN1CCN(c2ncnc3sc(C(=O)N4CCCC4)c(C)c23)CC1,-0.23,0.15
O=C(O)CCCCc1cccs1,1.4,-0.9
CC(=O)Nc1ncc2c(n1)CC(c1ccco1)CC2=O (stereo not drawn),-0.04,-0.55
O=C1CCCN1C(=O)CSc1nnc(-c2ccccc2)c(-c2ccccc2)n1,·,0.95
COc1ccc(CN(C)C(=O)c2cccc(C)c2)cc1OC,·,1.6
CSc1sc(C#N)c(C)c1-c1ccn(C(=O)c2ccc(Cl)cc2)n1,1.6,-0.3
O=C(O)CCc1cn(CCC(=O)O)cn1,0.12,-0.25
O=C(O)CCN1C(=O)SC(Nc2ccc(Cl)cc2)C1=O (stereo not drawn),-0.1,1.6
CC(=O)CC(=O)N1CCN(c2ncc(C(F)(F)F)cc2Cl)CC1,-0.57,·
CC1=C(C)CC2C(=O)N(c3ccc4c(c3)OCO4)C(=O)C2C1 (stereo not drawn),0.66,0.65
Cc1cccc(NC2=NCC(C)(C)S2)c1,-0.66,·
Cc1nc(Sc2ncn[nH]2)c2sc(=S)n(-c3ccccc3)c2n1,-0.28,0.85
Cc1c(C(=O)N2CCN(Cc3ccccc3)CC2)sc2ncnc(N3CCC(C)CC3)c12,0.51,·
Cc1nn(C)c2[nH]c3c(c(=O)c12)CSC3,2.3,2.5
CCOc1ccc(NC(=O)C2=C(C)NC(=O)NC2c2cccc(Br)c2)cc1 (stereo not drawn),-0.24,·
CC(C)(C)NC(=O)CCN1C(=O)c2ccccc2S1(=O)=O,·,1.2

New compounds follow:
structure,CapD inh,AID504770
CC(C)(C)C(=O)NC(c1ccccc1)c1c(O)ccc2ccccc12 (stereo not drawn),-1.5,0.55
CCc1nnc(NC(=O)C2CCCCC2)s1,0.13,-0.65
CC(=O)OCC1OC(Sc2cccc3cccnc23)C(OC(C)=O)C(OC(C)=O)C1OC(C)=O (stereo not drawn),36,·
O=C(O)C1CCN(S(=O)(=O)c2ccc(Cl)cc2)CC1,·,0.75
CC(=O)C1=NN(c2ccc(Cl)cc2)C2(S1)c1ccccc1C(c1ccc(Br)cc1)=NN2c1ccccc1 (stereo not drawn),-0.17,·
Nc1cc(-c2ccccc2)ccc1O,-0.11,0.05
O=C(NC1CC1)c1ccc(-c2ccccc2)cc1,·,1.9
COc1ccc(-n2c(SCC(=O)c3ccc4c(c3)NC(=O)CO4)nc3ccccc3c2=O)cc1OC,·,0
FC(F)(F)c1cc(C(F)(F)F)n2nc(-c3ccccc3)cc2n1,-0.66,-0.4
COc1ccc2c(c1)C(C)CC(C)(C)N2C(=O)c1sc2cc([N+](=O)[O-])ccc2c1Cl (stereo not drawn),-0.26,·
Cc1ccc(C(=O)C2COC(=O)C2)cc1 (stereo not drawn),-1.7,-1.2
CCOc1ccc(C(CC(=O)O)N2Cc3ccccc3C2=O)cc1 (stereo not drawn),0.17,-0.45
CC(C(=O)NC1CC2CCC1C2)N(c1ccccc1)S(C)(=O)=O (stereo not drawn),0.72,-0.35
Cc1ccccc1C(=O)NCc1ccc2c(c1)CCO2,1.1,0
CNC1CCC(C(F)(F)F)N(C)C1=O (stereo not drawn),·,-0.05
Cc1onc(-c2ccccc2Cl)c1C(=O)NC1=NCCS1,-0.24,-0.95

The list continues:
structure	CapD inh	AID504770
COc1ccc(C2CC2/C(=N/OC(=O)c2ccc(C)cc2)c2ccccc2)cc1 (stereo not drawn)	-0.51	·
CCc1ccc(N(CC(=O)N=Nc2c(O)[nH]c3ccccc23)S(C)(=O)=O)cc1	-0.96	0.5
CN(C)S(=O)(=O)N1CCN(C(=O)c2cccs2)CC1	-0.12	-0.75
O=C(C1CC1)N1CCc2cc(Br)cc(S(=O)(=O)NCCc3ccccc3Cl)c21	0.21	-0.35
O=C(Nc1c(C(=O)c2ccccc2)oc2ccccc12)c1ccco1	14	-1.8
CN(CCOc1ccccc1)Cc1nc2ccsc2c(=O)[nH]1	·	0.8
O=C(c1c[nH]c(C(=O)C(Cl)(Cl)Cl)c1)c1ccccc1Br	-0.41	·
O=C(Nc1ccccc1)Nc1ccc(NC(=O)c2ccccc2O)cc1	-0.11	2
CC(SCc1ccccc1)C(=O)O (stereo not drawn)	0.96	·
COc1ccc(N2C(=O)NC(=O)/C(=C/c3ccc(-c4ccc(C(=O)O)cc4)o3)C2=O)cc1	11	·
O=C(CSC1=NCCc2ccccc21)c1ccccc1Cl	-1.9	1.3
CN1CCN(C)C1=O	·	-0.4
O=C(CN1C(=O)c2ccccc2C1=O)Nc1ccccc1C(=O)O	0.27	-0.55
O=CN1CCN(C(=O)C(Cc2c[nH]c3ccccc23)NC(=O)c2cccs2)CC1 (stereo not drawn)	·	0.15
Cc1nc2c3ccccc3nc(SCc3cc(F)cc4c3OCOC4)n2n1	-0.085	0.2
CCC(C)(C)c1ccc(S(=O)(=O)NC2CC3CCC2(C)C3(C)C)cc1 (stereo not drawn)	0.02	·
COc1ccccc1OCc1nnc(SCC(=O)N2CCc3ccccc3C2)n1C	·	-0.5
CN(c1ccccc1)c1nc(-n2ccnc2)nc(-n2ccnc2)n1	0.075	0.05
CC1(C)CC(=O)C2=C(C1)OC1=C(C(=O)CC(C)(C)C1)C2(C)C	0.11	·
COc1ccc(-c2nnc(SCC(=O)N3CCC(c4ccccc4)=N3)n2CC2CCCO2)cc1 (stereo not drawn)	·	-0.9
CSCCC(NC(=O)c1ccc(C(F)(F)F)cc1)C(=O)N/N=C/c1ccc(Oc2ccccc2)cc1 (stereo not drawn)	-0.34	·
O=c1sc(Nc2ccc(Cl)c(Cl)c2)nc2ccccc12	-0.9	0.35
O=C(COC(=O)C1CC(=O)N(Cc2ccccc2)C1)Nc1ccc(Cl)cc1F (stereo not drawn)	·	-0.4
Cc1ccc2cc3cc(C(=O)NCCCN4CCN(Cc5ccccc5)CC4)oc3nc2c1	19	-0.6
O=c1n(-c2ccccn2)cnn1-c1c([N+](=O)[O-])cc(C(F)(F)F)cc1[N+](=O)[O-]	-0.46	·
COc1ccccc1C(=O)Nc1ccc(C(O)(C(F)(F)F)C(F)(F)F)cc1	-0.01	0.5
COc1ccc(C(=O)NCCc2nc(-c3ccccc3Cl)no2)cc1OC	·	0.45
O=S(=O)(c1cccc2nonc12)N1CCCC1c1ccc(F)cc1 (stereo not drawn)	-0.65	-0.4
CC(=O)NC(Cc1ccc(C)c(C)c1)C(=O)O (stereo not drawn)	-0.23	0.7
O=C(NC1CCCCC1)C1CC(c2ccccc2O)=NO1 (stereo not drawn)	·	-1
C=CCn1c(SCC(=O)Nc2nc(C)c(C)s2)nnc1-c1cc2cccc(OC)c2o1	·	0.35
O=C1CSC2(C(=O)N(CN3CCN(Cc4ccccc4)CC3)c3ccccc32)N1c1ccc(Br)cc1 (stereo not drawn)	0.2	·
O=C(CSc1nc2cc(C(=O)NCC3CCCO3)ccc2c(=O)n1Cc1ccco1)c1ccc(F)cc1 (stereo not drawn)	-1.2	·
O=C(c1cc(C(F)(F)F)cc(C(F)(F)F)c1)N1CC=CCC1	-0.36	1.7
O=C(c1sc2ccccc2c1Cl)N1CCc2ccccc21	-0.67	1.2

High-throughput results deposited in PubChem by ICCB-Longwood Screening Facility, Harvard Medical School.
